Assay outcomes: PubChem BioAssay, National Center for Advancing Translational Sciences (NCATS)
gsp antagonist: antagonists of gsp mutant (McCune-Albright syndrome). Potency, µM (highest dose often 76.9 µM), without a hit: top-dose activity change, negative = inhibition, actives largely listed as inhibitors. 0.4% of 340,000 active. AID 624288. gsp-mutant cells, cAMP HTRF, 30 min; control for the full effect not named in the record; active = falling curve of any shape with a large fitted effect; inconclusive = falling curve, mostly with a smaller effect; inactive = flat or rising curve; cell line not stated here;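 further: intracellular cAMP measured with PDE inhibitor Ro 20-1724 present during compound exposure; potency means the concentration at half of the fitted maximal effect; on the % scale 0 is the no-effect control and ±100 the full control effect; nearly all actives have a fitted effect of over 65% in size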
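Cells in G418 medium, seeded 16-24 h, 37C; buffer exchange to DPBS + 1 mM CaCl2, 0.5 mM MgCl2, 0.05% BSA; cpds in DMSO + […] (300 uM stock), 30 min 37C; HTRF cAMP detection.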
Menin MLL FP FL: displaces fluorescein MLL peptide from human menin | Fluorescence polarization, fluorescein-MLL peptide displacement from menin | FP activity change, % at 61.4 µM | 290,000 tested, under 10 active; inconclusive = falling polarisation curve, or a change in total fluorescence; inactive = total fluorescence flat and polarisation flat or rising; no compound was filed as active; the % refers to the polarisation; negative = inhibition;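 further: % of control where 0% means no effect; inhibitors lower the polarisation; unlabelled MLL peptide was the positive control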
ClpP mod: qHTS Assay for Activators of ClpP; purified B. subtilis ClpP, FRET peptide cleavage, 20 min; Potency, µM (doses to about 57.5 µM), for the others: at the top dose activity change, negative = active; 1.9% of 340,000 active; active = well fitted falling curve with a large enough effect; inconclusive = small, poorly fitted or top-dose-only effect; inactive = no such curve, though single readings can be large or run the other way; further: potency means the concentration at half of the fitted maximal effect; the source files actives as falling curves though it sought activators and does not explain the sign; nearly all actives have a fitted effect of over 65% in size; many hits overshoot -100%
Target sequence (P80244 whole entry, looked up): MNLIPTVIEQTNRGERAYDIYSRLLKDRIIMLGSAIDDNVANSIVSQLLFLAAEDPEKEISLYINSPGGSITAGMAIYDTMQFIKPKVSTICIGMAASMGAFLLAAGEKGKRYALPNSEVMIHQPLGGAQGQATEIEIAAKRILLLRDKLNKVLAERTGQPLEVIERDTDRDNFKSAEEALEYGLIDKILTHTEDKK
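FRET quenching reversal measured ClpP activation: 10 microg/mL B. subtilis ClpP at pH 8 with the FRET-FV decapeptide, read at 430 nm after 320 nm excitation. The 20-min minus 0-min signal was scaled between DMSO/no-enzyme wells and ADEP (5.8 microM final).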
TRPV1 potentiator: potentiators of human vanilloid receptor 1 (TRPV1). Q8NER1. TRPV1-expressing cells, Fluo-8 calcium influx, capsaicin EC20 potentiation; host cell line not named in the record; control for the full effect not named in the record. potentiation, % at 8.33 µM. 0.02% of 320,000 active; active means potentiation above 80%; inconclusive means 30% to 80%; inactive means below 30%; further: 0% is about no effect
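Cells expressing TRPV1 were dye-loaded with Fluo-8 and read kinetically: 10 s baseline, 3 min after compound (agonist portion), then 2 min after EC20 capsaicin (allosteric enhancer portion). Calcium-bound dye fluorescence at 480/520 nm.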
gsp ag: gsp mutant agonism; gsp mutant cells, cAMP HTRF, 30 min; control for the full effect not named in the record; Potency, µM (titrated, usually from 76.9 µM), without a hit: at the highest dose activation (cAMP increase), most hits filed as activators; 0.13% of 340,000 active; AID 624287; active = well fitted activation curve with a large enough effect; inconclusive = small, poorly fitted or top-dose-only effect, or another doubt; inactive = no such curve, though single readings can be large or run the other way; cell line not stated here;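 further: phosphodiesterase inhibitor Ro 20-1724 added with compounds to block cAMP breakdown; potency means the concentration at half of the fitted maximal effect; nearly all actives have a fitted effect of over 60% in size; about a fifth of the inactives were tested at one dose only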
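Cells stably selected in G418 were plated at 2000/well, grown 16-24 hr, then given compounds in DMSO with the PDE inhibitor […] (300 uM solution added) for 30 min at 37C; cAMP was read by HTRF.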
Sfp inh: Sfp phosphopantetheinyl transferase inhibition; Biochemical Sfp PPTase activity, qHTS; Potency, µM, without a hit: max response, negative = inhibition, actives largely listed as inhibitors; 3.5% of 310,000 active; AID 1490; active means well fitted inhibition curve with a large enough effect; inconclusive means small, poorly fitted or top-dose-only effect, or another doubt; inactive means no such curve, though single readings can be large or run the other way;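 further: the enzyme is Sfp with the accession as filed and its product quenches rhodamine fluorescence; potency means the concentration at half of the fitted maximal effect; 0% = enzyme reaction without inhibitor and -100% = no enzyme wells; top concentration of the series not given in the record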
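Fluorescence-quenching assay with 15 nM Sfp, 5 uM rhodamine-CoA and 12.5 uM BHQ-2-labelled ybbR peptide in pH 7.6 Hepes/MgCl2 buffer. Enzyme was pre-incubated with compound for 15 min at room temperature. Rate was taken from the 30-min fluorescence change (525/598 nm).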
D2 potentiator: human D2 receptor positive allosteric modulation. potentiation, % (test concentration not listed). P14416. DiscoveRx D2 beta-arrestin cells, luminescence, 90 min; 100% = 57 uM dopamine signal. 0.23% of 360,000 active; active = potentiation of 50% or more; inconclusive = 30% to 50%; inactive = 30% or less;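 further: compound concentration not given in the record; tested on top of an EC20 dose of dopamine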
Target sequence (P14416 whole entry, looked up): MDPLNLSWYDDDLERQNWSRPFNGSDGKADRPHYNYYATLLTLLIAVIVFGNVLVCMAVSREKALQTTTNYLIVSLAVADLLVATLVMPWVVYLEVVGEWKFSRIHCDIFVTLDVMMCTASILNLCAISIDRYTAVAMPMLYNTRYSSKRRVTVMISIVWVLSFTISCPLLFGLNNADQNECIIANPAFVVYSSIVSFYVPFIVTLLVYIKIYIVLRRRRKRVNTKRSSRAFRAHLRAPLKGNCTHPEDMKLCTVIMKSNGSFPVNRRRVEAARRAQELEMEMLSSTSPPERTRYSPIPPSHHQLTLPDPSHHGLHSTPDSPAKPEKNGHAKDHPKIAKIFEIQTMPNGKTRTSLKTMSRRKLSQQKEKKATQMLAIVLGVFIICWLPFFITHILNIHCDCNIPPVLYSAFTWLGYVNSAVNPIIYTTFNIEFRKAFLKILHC
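D2 cells co-treated with compound plus 50 nM dopamine (EC20) for 90 min at 37 deg C to detect potentiation. Beta-arrestin recruitment was read as enzyme-fragment luminescence after 1 h at ambient temperature. Full response was set by 57 uM dopamine.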
Active calls of the source: *; ? = inconclusive; · = no result given; & = joins results of further samples; [ ] = remark or other dose.

SMILES	gsp antagonist	Menin MLL FP FL	ClpP mod	TRPV1 potentiator	gsp ag	Sfp inh	D2 potentiator
O=C(CN1C(=O)NC2(CCCCC2)C1=O)Oc1ccc2ccc(=O)oc2c1	5%	·	3.7%	10	0%	·	-1
CC(C)NC(=O)CC1Nc2c3ccccc3nc(=S)n2C1=O (stereo unspecified)	1%	0.5	-3.4%	-3	?	?	6
O=C(CNC(=O)c1ccccc1F)NCC(c1cccs1)N1CCOCC1 (stereo unspecified)	10%	·	0.6%	-6	14%	·	-5
CCOC(=O)c1cnc(SCC(=O)NCc2ccco2)nc1N	13%	2.9	-0.1%	-1	-14%	-17%	-12
O=C(Nc1ccc(Cl)c(Cl)c1)N1CCC(N2CCCCC2)CC1	6%	-2.7	1.4%	-9	-12%	14%	-24
CC(C)[C@H](NC(=O)c1ccc(Cl)cc1)C(=O)OCC(=O)N1CCN(c2ccccc2)CC1	-11%	·	-2.3%	·	-11%	·	9
CCOC(=O)c1sc(NC(=O)CSC(=S)N2CCN(C)CC2)nc1C	13%	1.5	1.0%	-18	-3%[15.4 µM]	14%	-13
O=C(NCCN1CCOCC1)c1cc2ccccc2[nH]1	-2%	4.1	?	1	-20%	12%	-26
Cc1ccc(Cl)cc1N1CCN(C(=O)CCS(=O)(=O)c2cccc3nonc23)CC1	-12%	6.9	-8.8%	-18	3%[15.4 µM]	9%	-7
O=C(NCc1nnc(SCC(=O)N2CCOCC2)o1)c1ccccc1F	20%	0.2	0.6%	8	22%	16%	-1
CCCCc1ccc(S(=O)(=O)NCCCN2CCCC2=O)cc1	-7%	1.5	-4.3%	1	-4%	0%	18
COc1cc2nc(CSc3ncn[nH]3)[nH]c(=O)c2cc1OC	7%	-0.8	·	4	-2%	-19%	-4
Cc1ccc(/C=C/c2ccc(=O)n(Cc3ccc(F)cc3)n2)cc1	-18%	-3.2	·	5	9%	-24%	-3
COc1ccc(NC(=O)CSC2=C(C#N)C(c3ccco3)C(C(=O)Nc3nc4ccccc4s3)=C(C)N2)cc1 (stereo unspecified)	-8%	·	22µM*	·	-49%	·	-13
COc1ccc(NC(=O)Cn2c(-c3ccccc3)cc(C(C)=O)c2C)c(OC)c1	0%	-6.3	·	-1	17%[15.4 µM]	-13%	-7
CCOC(=O)Nc1ccc2c(COC(=O)c3ccccc3O)cc(=O)oc2c1	-3%	-1.7	·	10	24%	21%	4
C/C(Cl)=C\Cn1c(O)c(N=O)c2ccccc21	-7%	-0.6	·	4	-1%[15.4 µM]	6%	1
CCc1ccc(CN(C)C(=O)C2CCC(=O)N(Cc3ccccn3)C2)cc1 (stereo unspecified)	6%	·	0.4%	5	28%	10%	19
Fc1ccc(-c2nc3ccccn3c2NCc2ccc3c(c2)OCO3)cc1	-23%	0.8	·	-6	-22%[15.4 µM]	-29%	2
O=C(NCc1ccco1)C(=O)NCC1OCCCN1S(=O)(=O)c1ccccc1 (stereo unspecified)	7%	0.9	-0.3%	-4	3%	7%	-7

3 compounds already listed, arranged by the number in Sfp inh, falling:
SMILES	Sfp inh
O=C(NCc1nnc(SCC(=O)N2CCOCC2)o1)c1ccccc1F	16%
CCOC(=O)c1sc(NC(=O)CSC(=S)N2CCN(C)CC2)nc1C	14%
C/C(Cl)=C\Cn1c(O)c(N=O)c2ccccc21	6%

Carrying on.
SMILES	gsp antagonist	Menin MLL FP FL	ClpP mod	TRPV1 potentiator	gsp ag	Sfp inh	D2 potentiator
O=[N+]([O-])c1ccc(N2CCN(c3ccc(F)cc3)CC2)nc1	4%	8.3	?	-3	-17%	11%	-15
COc1cccc(NC(=O)c2ccc(Cn3cc([N+](=O)[O-])cn3)o2)c1	-7%	0.6	-5.3%	0	4%	7%	-15
CSc1ccc(OC2CCCCC2NS(=O)(=O)c2ccccc2)cc1 (stereo unspecified)	-3%	6.0	-1.5%	6	?	-1%	-5
COc1ccc2nc(NC(=O)c3cccc(S(=O)(=O)N4CCOCC4)c3)sc2c1	?	5.5	-6.9%	-17	9%	13%	-15
O=C(/C=C/c1cccs1)NNC(=O)c1ccccc1	-2%	·	2.1%	22	-17%	·	-6
CN(C)S(=O)(=O)c1ccc2nc(NC(=O)c3cccs3)sc2c1	-33%	0.3	-8.1%	-11	26%	3%	-3
Cc1c(O)nc2sc3ccccc3n2c1=O	·	2.2	·	11	·	-3%	·
CCn1c(CNC(=O)Cc2ccc(OC)cc2)n[nH]c1=S	3%	-4.7	·	10	-13%	10%	-4
CN1C(=O)C(=O)/C(=C(/O)c2ccc(Br)cc2)C1c1ccc(Cl)cc1 (stereo unspecified)	0%	-2.2	·	?	?	23%	-2
Cc1c(C(=O)NCc2ccccn2)oc2c(Cl)cccc12	9%	·	-3.5%	-9	2%	·	-4
Cc1nnc(NC(=O)c2ccc(Br)o2)s1	-7%	0.8	-0.5%	-4	4%	1%	-10
O=C1/C(=C/c2ccco2)SC(=S)N1C1CCS(=O)(=O)C1 (stereo unspecified)	-4%	2.7	3.0%	4	-39%[inhibitor]	17%	-35
CCc1ccc(OCC(=O)c2c(O)c3ccccc3oc2=O)cc1	-3%	4.5	-15%	11	1%	5%	-5
Cc1ccc(NC(=O)CCC(=O)c2cccs2)cc1F	4%	-1.8	·	11	-6%[15.4 µM]	10%	-14
CCN(CC)C(CNC(=O)CSc1nnnn1-c1c(C)cccc1C)c1ccco1 (stereo unspecified)	-2%	·	-2.8%	-1	?	·	-23
CC(=O)N1CN(Cc2ccccn2)Cc2c1sc1c2CCCC1	-10%	-0.4	1.4%	0	1%	45µM*	-22
COc1ccc(-n2ncc3c(NCc4cccnc4)ncnc32)cc1	-19%	-1.4	-19%	-8	?	6%	5
O=[N+]([O-])c1ccccc1OCc1nc(-c2cccs2)no1	7%	-3.0	·	-7	9%[15.4 µM]	-8%	2
O=C1CN(C(=O)COC(=O)c2c(F)cccc2Cl)c2ccccc2N1	-7%	·	1.4%	·	-2%	·	-5
Cc1ccc(S(=O)(=O)N(CCC#N)C2CCCCC2)c2nsnc12	-12%	1.9	-0.7%	-2	13%	-15%	7
COc1cccc(NC(=O)CSc2nc(=O)n(CCN(C)C)c3c2CCCC3)c1	-5%	·	-2.1%	9	29%	·	-19
CN=C1c2c(-c3ccccc3)c3cc(OC)ccc3n2CCN1C	7%	-0.1	-0.7%	?	11%	-8%	-15
CS(=O)(=O)c1ccccc1-c1nnc(NC(=O)c2ccco2)o1	-8%	·	1.5%	-9	-7%[15.4 µM]	·	8
COc1ccc(CNC(=O)CN(C(=O)c2csnn2)c2cnc3ccccc3c2)cc1	2%	·	-1.1%	4	12%[15.4 µM]	15%	-7
CCOc1ccccc1C=NNC(=O)C(=O)NN=Cc1ccccc1OCC	3%	·	-2.2%	·	-15%	·	-12
CNC(=S)N1CCN(C(=O)c2ccco2)CC1	12%	0.2	0.3%	-2	19%[15.4 µM]	15%	0
COc1ccccc1CN1[C@@H](CC(=O)O)c2ccccc2S1(=O)=O	5%	·	0.0%&-0.1%	·	15%	·	-8
CCOCCCNC(=O)C1CC(=O)N(CCc2ccc(C)cc2)C1 (stereo unspecified)	-10%	4.0	·	5	25%	13%	-1
COc1cccc2c1OCC/C2=N\NC(=O)C(C)Oc1ccc([N+](=O)[O-])cc1 (stereo unspecified)	5%	3.8	·	-3	2%[15.4 µM]	3%	-9
Cc1cc(NC(=O)CSc2nnc(C3COc4ccccc4O3)n2N)no1 (stereo unspecified)	8%	2.6	1.0%	-14	?	?	-5
CCCCn1c(SCC(=O)Nc2ccc(OC)cc2)nc2ccc(N3CCOCC3)cc2c1=O	-7%	1.9	-21%	27	?	-37%	11
O=C(CCC1CCCC1)NNC(=O)c1cccc(Cl)c1	15%	·	1.5%	-24	-3%	13%	-11
CC(=O)Nc1ccc(-c2csc(Nc3cc(C)ccn3)n2)cc1	-16%	7.9	-2.7%	-6	-3%[15.4 µM]	-22%	6
CCOC(=O)C1(C)/C(=N/Nc2ccccc2)C(=O)C(=O)N1c1ccccc1 (stereo unspecified)	?	-1.1	-2.4%	2	3%	14%	-15
CCOC(=O)c1cn2ccc(C)cc2n1	7%	5.5	-12%	11	29%	7%	-7
C=C(C)C1CCC(C)=C1COC(=O)Nc1ccccc1 (stereo unspecified)	-26%	2.4	0.4%	-6	?	11%	11
Cc1ccc(COC(=O)c2cc([N+](=O)[O-])ccc2N2CCOCC2)cc1	·	-1.0	·	-5	·	-6%	·
CC(C)Nc1cc(C(F)(F)F)nc(-c2ccccn2)n1	19%	0.9	-7.4%	·	-32%[inhibitor]	23%	-10
Cc1ccc(S(=O)(=O)N2CCCCC2CCNC(=O)C(=O)NCc2ccccc2C)cc1 (stereo unspecified)	-7%	·	·	-2	40%[15.4 µM]	·	-12
Cc1cc(-c2ccccc2)nc(N/N=C/c2ccc(O)cc2)n1	-15%	·	·	11	1%[15.4 µM]	·	3
O=C(NNC(=S)NC(=O)c1cccnc1)c1ccccc1	-1%	-7.2	0.2%	-6	22%	0%	-23
Cn1cc(C(=O)N/N=C/c2ccc(Br)c([N+](=O)[O-])c2)c2ccccc21	?	4.1	·	11	-8%[15.4 µM]	6%	-4

An excerpt of these results, with two lines to a compound:
Below each compound: gsp antagonist, Menin MLL FP FL, ClpP mod, TRPV1 potentiator, gsp ag, Sfp inh, D2 potentiator
COc1cccc2c1OCC/C2=N\NC(=O)C(C)Oc1ccc([N+](=O)[O-])cc1 (stereo unspecified)
    5%, 3.8, ·, -3, 2%[15.4 µM], 3%, -9
CC(=O)Nc1ccc(-c2csc(Nc3cc(C)ccn3)n2)cc1
    -16%, 7.9, -2.7%, -6, -3%[15.4 µM], -22%, 6

Two entries picked at random from those above, as already listed:
SMILES	gsp antagonist	Menin MLL FP FL	ClpP mod	TRPV1 potentiator	gsp ag	Sfp inh	D2 potentiator
CCCCn1c(SCC(=O)Nc2ccc(OC)cc2)nc2ccc(N3CCOCC3)cc2c1=O	-7%	1.9	-21%	27	?	-37%	11
CCOC(=O)C1(C)/C(=N/Nc2ccccc2)C(=O)C(=O)N1c1ccccc1 (stereo unspecified)	?	-1.1	-2.4%	2	3%	14%	-15

With a hit mark in Sfp inh (from the list above):
compound | Menin MLL FP FL | gsp ag | Sfp inh | D2 potentiator
CC(=O)N1CN(Cc2ccccn2)Cc2c1sc1c2CCCC1 | -0.4 | 1% | 45µM* | -22
